Bioassay records as filed in PubChem BioAssay.
AID504770 – E. coli YBA685 growth inhibition, screen for V. cholerae RctB inhibitors; E. coli YBA685 rctB-dependent plasmid, OD600 growth, 3 h; hits give low values; z-score (concentration not given with the values); actives 0.27% (n = 130,000); AID 504770;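 active means z-score under -2 on both plates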;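 further: wells of about 30 µL received 100 nL stock; score is relative to mean and SD of the test wells; the first replicate is given; strong numbers were not always called active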
CapD inh – inhibitors of Bacillus anthracis CapD enzyme | purified CapD enzyme, fluorescence intensity read-out; hits give low values; some hits fall short of the stated cut | z-score (concentration not given with the values) | actives 0.23% (n = 140,000);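 active means z-score under -4 in either of two replicates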;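 further: stock transfer was 100 nL into about 40 µL; score is relative to mean and spread of the plate; one replicate is shown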
Numbers without * were called inactive; x = no result given; & = joins results of further samples.

| Compound | AID504770 | CapD inh |
| --- | --- | --- |
| C=CCn1c(=O)/c(=C2/Sc3ccccc3N2CC)s/c1=C1/C(=O)NN=C1C | 3.3 | x |
| CCCN(Cc1cc2cccc(C)c2[nH]c1=O)S(=O)(=O)c1ccccc1 | 0.65 | 1.2 |
| CCCN1CNC(=S)N(c2cc(C)ccc2C)C1 | 0.55 | 32 |
| CCCN(CCC)S(=O)(=O)c1ccc(C(=O)Nc2ccccc2)cc1 | 0.35 | -0.49 |
| O=C(Nc1nc2ccccc2c(=O)s1)c1ccccc1 | -0.05 | 0.15 |
| CCOC(=O)c1ccc(-n2c(C)cc(/C=C3\C(=O)NC(=S)N(c4ccccc4)C3=O)c2C)cc1 | x | -0.26 |
| COC(=O)c1c(C)oc2ccc(N(C(C)=O)S(=O)(=O)c3ccc(OC)cc3)cc12 | -0.7 | x |
| CCOC(=O)N1CCN(C(=O)c2c[nH]c3ccc(S(=O)(=O)N(C)c4cccc(C)c4)cc3c2=O)CC1 | x | 2.5 |

(continued)
| Compound | AID504770 | CapD inh |
| --- | --- | --- |
| Cc1ccc(CSCCC(=O)NC2CCCC(C)C2C)cc1 (centres undefined) | -0.6 | -0.24 |
| CC1=C(C(=O)Nc2ccc(Br)cn2)C(c2ccccc2C)C2=C(CC(C)(C)CC2=O)N1 (centres undefined) | x | 2.9 |
| CC(C)OP(=O)(c1ccccc1)c1ccccc1 | -0.4 | -0.23 |
| CCCN(c1ccccc1C(=O)O)S(=O)(=O)c1ccc2c(c1)n(C)c(=O)n2C | -0.45 | 1.3 |
| Fc1cnc(N2CCc3ccccc32)nc1N1CCc2ccccc21 | -0.75 | -1.1 |
| COc1cccc(CCOC(=O)N(C)CCc2ccccn2)c1 | x | 0.14 |
| CN(C(=O)CSc1ccc(F)cc1)C1(C#N)CCCCC1 | -0.05 | x |
| CCCCC(=O)Oc1cc2c(C(=O)OCC)c(C)n(CCCC)c2c2ccccc12 | x | -0.39 |

The results go on:
| Compound | AID504770 | CapD inh |
| --- | --- | --- |
| CCOC(=O)C1=C(Nc2ccccc2)OCC1=O | -0.05 | 0.43 |
| CCOC(=O)C1=C(C)NC(SCc2cc(=O)[nH][nH]2)=C(C#N)C1c1cccs1 (centres undefined) | 0.5 | 2.3 |
| Cc1cc(C)c2c(CC(=O)Oc3ccc(Cl)cc3)coc2c1 | 0.1 | 0.045 |
| N#Cc1ccc(-c2ccncn2)cc1 | -0.75 | x |
| CCOC(=O)c1c(C)oc2ccc(N(C(=O)c3ccc([N+](=O)[O-])cc3)S(=O)(=O)c3ccc(C)cc3)cc12 | x | -0.4 |
| C/C(=N/O)c1ccc(N)cc1 | -0.1 | 0.23 |
| C=CCc1cccc(C=Nc2ccc(Br)cc2)c1O | -1.4 | -1 |
| CCOC(=O)N1CCN(CC2=CCC3CC2C3(C)C)CC1 (centres undefined) | 1.4 | 0.1 |

(continued)
| Compound | AID504770 | CapD inh |
| --- | --- | --- |
| Cc1ccc2c(C(=O)CNc3nccs3)c(C)[nH]c2c1 | -0.45 | -1.3 |
| O=C(c1cccc(N2C(=O)C3CC=CCC3C2=O)c1)N1CCc2ccccc2C1 (centres undefined) | 0.4 | 0.24 |
| O=c1c2c3n(nnc-2nn1-c1ccccc1)CCC3 | -0.3 | x |
| CCc1cc2c(N3CCN(Cc4nc5ccccc5[nH]4)CC3)ncnc2s1 | x | -0.04 |
| O=C(C1=COCCO1)N1CCN(c2ccccc2)CC1 | 0.25 | 0.41 |
| Cc1oc(-c2cccs2)nc1CSc1nc2ccncc2[nH]1 | -1.3 | 26 |
| N#Cc1c(/N=C/c2cccc(I)c2)oc(-c2ccccc2)c1-c1ccccc1 | x | 1.8 |
| Cc1cc(NC(=O)C2COc3ccccc3O2)no1 (centres undefined) | -1.1 | -0.18 |

New compounds follow.
| Compound | AID504770 | CapD inh |
| --- | --- | --- |
| O=C(Nc1ccc(Br)cc1)c1ccc(F)c(S(=O)(=O)N2CCN(c3ccccc3Cl)CC2)c1 | x | 0.91 |
| CCCN1CCN(c2ncnc3sc(C(=O)NCCc4ccc(OC)c(OC)c4)c(C)c23)CC1 | x | -0.01 |
| Cc1cc(N2CCN(C)CC2)ccc1NC(=O)C1CC(=O)N(Cc2ccccc2Cl)C1 (centres undefined) | -0.2 | x |
| CC(C)N(Cc1nc(-c2ccc(Cl)cc2)no1)C(=O)Cc1ccccc1 | 0.55 | 0.01 |
| O=C(Cn1cnc2scc(-c3ccccc3)c2c1=O)N1CCCCC1 | 2.1 | -0.61 |
| Cc1ccc(NC(=O)c2c[nH]c(=O)[nH]c2=O)cc1 | -0.2 | -0.26 |
| Cc1cccc(N2CCN(CC(O)c3ccc4cc[nH]c4c3)CC2)c1C (centres undefined) | -1.4 | 0.82 |
| O=C1Nc2ccccc2NC(=O)C2C3c4ccccc4C(c4ccccc43)C12 (centres undefined) | x | -0.1 |

(more compounds)
| Compound | AID504770 | CapD inh |
| --- | --- | --- |
| CN1C2CCC1CC(OC(=O)c1c[nH]c3ccccc13)C2 (centres undefined) | -0.75 | -0.15 |
| N#Cc1ccc(CSc2nc3ncccc3c(=O)n2Cc2ccccc2)cc1 | -0.35 | -6.5* |
| C/C(N)=C(/C#N)C(=O)CSc1nnc(Cc2cccc3ccccc23)n1N | 1.1 | x |
| CCC(CC)NC(=O)COc1cccc2c1OC(C)(C)C2 | -0.6 | x |
| O=C(/C=C/c1ccccc1)Nc1cc(C(=O)NCc2cccc(Cl)c2)ccc1N1CC2CC(C1)c1cccc(=O)n1C2 (centres undefined) | x | -0.26 |
| NS(=O)(=O)c1cc2c(cc1Cl)NCNS2(=O)=O | 0.3 | -1.1&0.01&1.1 |
| CC1(C)C2CCC(C2)C1C/C=N/NC(N)=O (centres undefined) | 0.4 | -0.42 |
| CN(C)S(=O)(=O)N1CCN(S(=O)(=O)N2CCCCCC2)CC1 | 0.55 | x |

Next part
| Compound | AID504770 | CapD inh |
| --- | --- | --- |
| O=C(O)CC1CCCCN1 (centres undefined) | -0.45 | x |
| CCOC(=O)CSc1nc2cc(C(=O)Nc3ccc(OC)c(OC)c3)ccc2c(=O)n1C1CCCCC1 | x | 0.62 |
| CCOc1ccc(NC(=O)c2cc(=O)c3ccccc3o2)cc1 | 0.5 | 0.22 |
| NC(=O)CSc1nc2sc3c(c2c(=O)n1C1CCCCC1)CCCCC3 | x | 1.4 |
| O=S(=O)(c1ccc(F)cc1)N(CCO)CC(O)Cn1c2ccccc2c2ccccc21 (centres undefined) | 0.2 | 6.1 |
| CN(C)S(=O)(=O)c1ccc(C(=O)CSc2nnc(C3COc4ccccc4O3)n2C)cc1 (centres undefined) | -0.2 | x |
| CN(CCOC(=O)c1ccc(OC(F)(F)F)cc1)c1ccc(C#N)cn1 | -0.35 | 0.84 |
| O=C(Nc1ncccn1)C1CCCCC1 | -0.1 | x |

Next part.
| Compound | AID504770 | CapD inh |
| --- | --- | --- |
| OCCn1c(CN2CCCCC2)nc2ccccc21 | -1 | -0.29 |
| Cc1cc(C)c2c(-n3cccc3)nn(CC(=O)N3CCCCC3)c2n1 | 0 | 2.6 |
| CCSCCOC(=O)C1=C(C)NC2=C(C(=O)CC(c3ccc(OC)cc3)C2)C1c1ccc(OC)c(OC)c1 (centres undefined) | x | 20 |
| CCOc1nc2cnccc2n(CC(=O)NCc2ccco2)c1=O | -0.3 | 0.46 |
| COc1ccc(OCCSCC(=O)N2CCN(c3ccc(OC)cc3)CC2)cc1 | -0.05 | x |
| Cc1cc(-c2ccc(S(=O)(=O)N3CCC(C)CC3)s2)n[nH]1 | -0.4 | -1.5 |
| COc1ccc(/C=N/NC(=O)Cc2ccsc2)c(OC)c1C | x | -0.35 |
| O=C(c1cccc(Cl)c1)N1CCn2c1nc1ccccc12 | 0.7 | 0.53 |

More structures follow:
Every second line gives: AID504770, CapD inh
Cc1ccc(C2CC(c3cccs3)=NN2C(=O)CSc2nnc(CNC(=O)c3cccs3)n2C)cc1 (centres undefined)
 : 1.1, x
Clc1cc(Cl)cc(CN2CCSCC2)c1
 : -0.25, -0.38
CN1/C(=C2/SC(=O)N(Cc3ccccc3)C2=O)Sc2ccccc21
 : 0.15, x
CCN(CC)C(=O)C(Cc1ccccc1)N1C(=O)C2C3C=CC(C3)C2C1=O (centres undefined)
 : -0.3, 0.26
CN1CCc2[nH]c(=S)c(C#N)c(-c3ccccc3)c2C1
 : 1.4, 1.5
CCc1ccccc1-n1nnnc1SC1OC(=O)c2ccccc21 (centres undefined)
 : 0.95, x
O=c1ccc2ccc(OCc3ccc(Cl)cc3)cc2o1
 : 0, 6
O=C1CN=C(c2ccccc2)c2oc3ccccc3c2N1
 : -0.45, -0.23
Cc1ccc(Sc2c(C)[nH]n(-c3ccccc3)c2=O)cc1
 : -0.55, 0.42
CS(=O)(=O)n1nccc1-c1ccc(-c2ccc(F)cc2F)o1
 : 0.4, 4.3

More structures.
Every second line gives: AID504770, CapD inh
Cc1sc(NC(=O)c2ccc(Br)s2)c(C(N)=O)c1C
 : 0.7, 0.33
O=C(CN1CCCC1)NCC1(c2ccccc2)CCCC1
 : x, 0.23
O=S(=O)(NCCc1csc(-c2cccnc2)n1)c1ccccc1
 : -0.65, 2.6
Cc1ccc(S(=O)(=O)N(C)CC(=O)OCc2nnc(-c3ccccc3)o2)cc1
 : 1.2, x
CCn1c(CCc2ccccc2)n[nH]c1=S
 : 1.4, x
O=C(Nc1cccnc1)/C(N=Nc1cccnc1)=C(\O)c1ccccc1
 : -1.5, x
O=C(O)CCc1nc2ccccc2n1CCC(=O)O
 : -0.35, -0.66
O=C(NCc1ccc(-c2cccs2)s1)c1ccc(N2CCOCC2)nc1
 : -1.2, 1
Nc1ncnc(SCc2ccc(Cl)cc2)n1
 : x, 0.53
O=C1/C(=C\c2ccco2)SC(=S)N1CCC(=O)N(CCO)c1ccccc1
 : 0.85, x

New compounds follow:
Every second line gives: AID504770, CapD inh
CN(C)C(=O)Oc1cc(=O)n(C)c2ccccc12
 : -1.1, 8.2
CCCCN(CCCC)C(=O)CSc1nc2sc(C)c(C)c2c(=O)[nH]1
 : x, -0.15
CC1CC1C(=O)OCC(=O)Nc1ccccc1Br (centres undefined)
 : -0.4, -0.35
CCn1c(SCC(=O)N=Nc2c(O)[nH]c3ccccc23)nc2ccccc21
 : 0.05, -0.68
C/C=N/N(C)c1cc(=O)n(C)c(=O)[nH]1
 : 0.05, x
COC(=O)c1ccc(OCc2cccc(Cl)n2)cc1
 : x, -0.33
O=C(CCN1C(=O)C2C3C=CC(C3)C2C1=O)Nc1ccc(Cl)c(C(F)(F)F)c1 (centres undefined)
 : x, -0.12
COc1ccc(CC(=O)NCC2(c3ccccc3)CCCC2)cc1
 : x, -0.2
COC(=O)c1cc(CSc2nc3ccccc3[nH]2)oc1C
 : 1.4, x
CC1CCc2c(sc(NC(=O)C3c4ccccc4Oc4ccccc43)c2C(N)=O)C1 (centres undefined)
 : 0.9, 0.07

Other entries follow.
Every second line gives: AID504770, CapD inh
O=C(CC(C(=O)O)c1ccccc1)c1cccs1 (centres undefined)
 : x, 0.05
CCOC(=O)C(Cc1ccccc1)C(=O)Nc1nc2ccccc2s1 (centres undefined)
 : 0.1, 0.15
CN1Cc2ccccc2N(CC(=O)O)C1=O
 : -0.55, x
Cc1ccc(Sc2nc(-c3ccccc3)cc(C(F)(F)F)c2C#N)cc1
 : x, -0.15
CC(=O)Nc1ccc(NC(=O)Cc2c[nH]c3ccccc23)cc1
 : -0.3, -0.92
CN1CCN(CNC(=O)c2cnccn2)CC1
 : 0.75, x
CCn1cc(C(=O)NCC(OC)OC)c(=O)c2cc(S(=O)(=O)N3CCc4ccccc4C3)ccc21
 : 0.4, -1.1
COc1cccc(CSc2nc3ccncc3[nH]2)c1
 : -1.5, -0.29
Cc1cc2ncc(C(=O)O)c(C(F)(F)F)n2n1
 : -0.7, -0.17
O=S(=O)(c1ccc(Oc2ccccc2)nc1)N1CCCC1c1ccc(F)cc1 (centres undefined)
 : -0.25, -0.2

Remaining list, next part:
Every second line gives: AID504770, CapD inh
NC(=O)COC(=O)/C=C/c1ccc(Cl)cc1Cl
 : -0.5, 0.36
O=C(NNc1ccccc1)C(F)(F)F
 : -0.65, x
Cc1nn(-c2ccccc2)c2sc(C(=O)C(C#N)c3ccc4ccccc4n3)cc12 (centres undefined)
 : 1.7, x
Cc1ccccc1OCC(=O)Nc1ccc(-c2nc3ccccc3o2)cc1
 : 0.25, 13
O=C1OC2(CCCCC2)OC(=O)C1=CNc1nccs1
 : -0.2, 80
COc1cccc(/C=N/NC(=O)C2CC23CCC3)c1O (centres undefined)
 : 1.9, 2.4
CCCS(=O)(=O)c1c(S(=O)(=O)CCC)c2c(C)cc(C)cn2c1C(=O)c1cc(C)ccc1C
 : x, -0.21
Cc1ccc(S(=O)(=O)N(C)c2nc3ccccc3nc2NCCCN(C)C)cc1
 : -0.55, x
Cc1ccc(C)c(NC2=NCCS2)c1
 : -0.4, 0.6
Cn1cnnc1Sc1ccc(Cl)cc1NC(=O)Cn1c(=O)cnc2ccccc21
 : 0, x

Four of the compounds above, field by field:
smiles: Cc1ccc(S(=O)(=O)N(C)c2nc3ccccc3nc2NCCCN(C)C)cc1
  AID504770: -0.55
  CapD inh: x

smiles: O=C(c1cccc(Cl)c1)N1CCn2c1nc1ccccc12
  AID504770: 0.7
  CapD inh: 0.53

smiles: O=C(C1=COCCO1)N1CCN(c2ccccc2)CC1
  AID504770: 0.25
  CapD inh: 0.41

smiles: C=CCn1c(=O)/c(=C2/Sc3ccccc3N2CC)s/c1=C1/C(=O)NN=C1C
  AID504770: 3.3
  CapD inh: x

Next part:
Every second line gives: AID504770, CapD inh
CCN(CC)S(=O)(=O)c1ccc2c(c1)CC(C)N2C(=O)C1CC1 (centres undefined)
 : -0.75, 0.15
N#Cc1ccc(CSC(N)=Nc2ccccc2)cc1
 : -0.05, 0.86
CCOC(=O)c1ccc(N2CCOCC2)c(NC(=O)c2nccnc2C(=O)O)c1
 : 0.3, -0.33
O=C(O)c1cccc(N2CCCCC2)c1
 : -0.7, x
c1csc(-c2nc3ccccc3[nH]2)c1
 : 1, 85
